From PubChem BioAssay
HNF4A DNA FP: change in binding of human HNF4 alpha to DNA | HNF4a-FITC DNA binding, fluorescence polarization, 1 h | activity change, % at 10 µM | 0.3% of 360,000 active; in the data active means activity change above about 30%, passing the limit was not always enough;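 further: controls were the assay level and a saturating level of protein; the project sought stronger binding though the title names inhibitors; some compounds called inactive have numbers as strong as hits; positive values seem to mean higher polarization but the record does not say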
Target sequence (P41235 whole entry, looked up): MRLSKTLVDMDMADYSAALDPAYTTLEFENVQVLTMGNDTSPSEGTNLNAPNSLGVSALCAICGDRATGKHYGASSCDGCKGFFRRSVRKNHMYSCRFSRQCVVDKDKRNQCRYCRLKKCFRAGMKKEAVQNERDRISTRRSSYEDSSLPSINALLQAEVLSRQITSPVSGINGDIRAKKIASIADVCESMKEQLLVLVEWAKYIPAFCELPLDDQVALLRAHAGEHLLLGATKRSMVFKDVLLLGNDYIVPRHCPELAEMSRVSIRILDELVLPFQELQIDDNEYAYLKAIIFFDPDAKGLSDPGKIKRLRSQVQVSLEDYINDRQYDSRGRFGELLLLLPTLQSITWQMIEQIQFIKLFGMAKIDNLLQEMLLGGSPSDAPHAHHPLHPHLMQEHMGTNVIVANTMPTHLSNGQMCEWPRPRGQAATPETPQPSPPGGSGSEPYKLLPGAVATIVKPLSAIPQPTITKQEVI
LANA-H2A inh: blocks KSHV LANA binding to histone H2A/H2B. cell-free LANA-H2A/H2B peptide, fluorescence polarization. inhibition, % (concentration not given with the values). AID 2629. 0.6% of 320,000 active; in the data active means inhibition mostly above about 10%, no sharp cut-off; inactive means mostly below about 6.7%;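 further: stock transfer was 7.5 nL into about 10 µL; 0% = median of vehicle wells and 100% = median of positive control wells; one replicate is shown; the record names a cut of 25% in any replicate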
Bfl-1 A1 inh: inhibitors of the anti-apoptotic protein A1, read as caspase activation; caspase activation, % (test concentration not listed); MEF A1-2A-BIM cells, Caspase-Glo 3/7 luminescence, 3 h; percent of clofoctol response, vehicle zero; 0.066% of 330,000 active;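 active means over half of replicate activation scores above 10%, or exactly half above 10 with the replicate mean above 10; inconclusive means replicate mean below 10 yet half the replicates above 10; inactive means over half of replicates below 10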;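 further: wells of about 30 µL received 50 nL stock; many hits fall short of the cut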
Beta2AR agonist: agonists of human beta-2 adrenergic receptor inducing internalization; AID 504454; P07550; 0.43% of 340,000 active; Am2.2-beta2AR cells, FAP receptor internalization, flow cytometry; reference of the scale not given here; response, % (test concentration not listed);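 active means response above a set limit, near 3 SD of response in nonfluorescent compounds, cut at about 42% in these data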;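 further: stock transfer was 100 nL into about 11 µL; a reference agonist was the positive control; negative values mostly stem from fluorescent compounds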
Target sequence (P07550 whole entry, looked up): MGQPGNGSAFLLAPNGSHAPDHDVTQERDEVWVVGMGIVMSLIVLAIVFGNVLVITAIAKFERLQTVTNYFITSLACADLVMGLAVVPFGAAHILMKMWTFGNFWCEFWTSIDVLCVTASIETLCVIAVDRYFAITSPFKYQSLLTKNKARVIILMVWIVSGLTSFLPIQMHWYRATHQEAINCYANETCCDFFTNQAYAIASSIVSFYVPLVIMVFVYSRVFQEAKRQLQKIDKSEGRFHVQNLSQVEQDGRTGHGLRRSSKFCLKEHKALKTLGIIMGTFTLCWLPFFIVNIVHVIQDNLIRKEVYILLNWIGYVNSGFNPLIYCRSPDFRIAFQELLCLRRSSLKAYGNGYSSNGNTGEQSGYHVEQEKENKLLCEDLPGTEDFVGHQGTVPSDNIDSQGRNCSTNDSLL
Ecoli growth: inhibitors of Escherichia coli growth; 0.21% of 330,000 active; OD600 absorbance (test concentration not listed); OD600, 23 h; hits give low values; AID 1053175;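 active means OD600 absorbance below the run mean of sample wells minus 3.6 SD, in any replicate, cut at about 0.56 in these data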;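 further: stock transfer was 300 nL into about 60 µL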
Vif TR-FRET: HIV-1 Vif–A3G interaction blockers – biochemical, TR-FRET, GST-Vif 1-94, biotin-A3G peptide, dose response retest, primary screen (AID 1117319). TR-FRET GST-Vif / biotin-A3G peptide binding; higher % means a stronger effect; test concentration not given here; strong numbers were not always called active. 0.57% of 260,000 active. one-dose inhibition, %; IC50 in µM for titrated hits;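 active means above the screen mean plus three standard deviations and confirmed in dose response; inconclusive means results disagree or hit not tested in dose response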;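 further: Vif residues 1-94 fused to GST binding biotinylated APOBEC3G peptide 110-148; 0% = full assay without inhibitor and 100% = GST in place of GST-Vif; retest series ran down from 100 µM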
UCH37 DUB inh: inhibitors of human deubiquitinating enzyme UCH37 | AID 588478 | inhibition, % (no concentration beside the values) | Q9Y5K5 | purified proteasome/UCH37, Ub-AMC cleavage fluorescence | 0.33% of 330,000 active;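 active means mean of two replicates above 20%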;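 further: 0% = compound-free wells with enzyme and 100% = wells lacking proteasome; stock transfer was 100 nL into about 20 µL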
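Material: human UCH37 enzyme supplied as purified proteasome complex / Amount: 0.15 nM proteasome as dispensed / Buffer or medium: pH 7.4 Tris-HCl (50 mM) with ovalbumin, ATP-MgCl2, DTT / Times: preincubation 30 min, reaction 25 min, room temperature / Technique: AMC fluorescence from Ub-AMC cleavage, excitation 355 nm, emission 460 nm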
Active calls of the source: *; ? = inconclusive; / = no result given; & = joins results of further samples.

SMILES	HNF4A DNA FP	LANA-H2A inh	Bfl-1 A1 inh	Beta2AR agonist	Ecoli growth	Vif TR-FRET	UCH37 DUB inh
CSc1nc(-c2ccccc2)ccc1C(N)=O	-1.0	-1.9	0.0	2.1	0.717	-1.6%	-0.3
COc1ccc(C(=O)OCC(=O)N2CCN(C(=O)c3ccco3)CC2)cc1OC	-4.2	0.0	0.1	-3.0	0.676	1.0%	1.5
N#CCCC(CCC#N)C1=NCCc2ccccc21	-3.2	9.0	-0.9	5.0	0.714	-1.0%	-2.2
CC1CC(=O)Nc2ccccc2N1S(=O)(=O)c1ccc(Cl)cc1 (stereo unspecified)	3.3	-2.4	-0.1	-2.4	0.66	/	3.0
Cc1c(C(=O)NCCSCc2ccc(Cl)cc2Cl)cccc1[N+](=O)[O-]	1.2	-0.3	0.8	0.3	0.609	0.5%	3.8
Cc1ccc(NC(=O)CC2NCCN(Cc3ccccc3)C2=O)cc1 (stereo unspecified)	4.1	-0.5	0.6	-5.1	0.692	-5.7%	-0.6
O=Nc1c(O)n(Cc2ccccc2)c2ccccc12	-1.7	-2.5	1.4	8.9	0.665	8.9%	2.5
CN(C)CCCNC(=O)c1ccc(=O)[nH]n1	-2.5	3.8	1.0	-3.1	0.724	/	1.4
CC(C)c1ccc(/C=N/N2CCN(c3ccccn3)CC2)cc1	2.9	-0.1	0.5	-2.8	/	6.5%	/
COc1ccc(CC(=O)OCC(=O)NCc2ccco2)cc1	2.1	-0.1	-1.1	2.7	0.625	/	0.4
CN(C)c1ccc(C(c2nnnn2C(C)(C)C)N2CCN(C(=O)c3ccco3)CC2)cc1 (stereo unspecified)	1.6	-0.8	-0.9	-8.9	0.7	21.1%	3.1
Cc1cc(C([O-])=C(C(=S)Nc2ccccc2)[n+]2ccccc2)c(C)n1-c1ccccc1	4.4	/	/	4.1	0.626	-0.6%	7.4
CO/N=C(\c1nonc1N)N1CCN(c2ccc(Cl)cc2[N+](=O)[O-])CC1	0.9	-2.8	-0.2	-12.6	/	-6.2%	/
COc1cccc(CNC(=O)CCC2CCCN(C(=O)c3csc(C(C)C)n3)C2)c1 (stereo unspecified)	-1.9	2.9	-0.5	4.7	0.674	/	3.0
COc1cc(N=C2C(=O)N3CCCc4cccc2c43)cc(OC)c1	-3.4	-2.5	0.2	1.0	0.681	1.1%	-1.4
CC(Sc1nc(C(C)(C)C)cc(-c2ccccc2)c1C#N)C(=O)Nc1ccccc1 (stereo unspecified)	-1.0	0.2	0.4	-0.4	0.696	/	2.4
O=S(=O)(c1ccc(-c2ccccc2)cc1)N1CCCCC1	-2.6	-0.6	-1.0	1.2	0.646	6.6%	4.2
O=C1C2C3CCC(O3)C2C(=O)N1c1nccs1 (stereo unspecified)	0.2	/	/	-5.5	0.659	-6.0%	3.7
N/C(=N\OC(=O)c1cccc(Br)c1)c1ccc(Br)cc1	13.6	5.1	-0.3	2.2	/	22.4%	-1.9
CCN(C(=O)CN1C(=O)NC(c2ccccc2)(c2ccc(C)c(C)c2)C1=O)C1CCS(=O)(=O)C1 (stereo unspecified)	-3.4	-3.9	1.5	-1.6	/	-16.7%	/
CC(=O)c1c(C)[nH]c(C(=O)OCCCCN2C(=O)c3ccccc3C2=O)c1C	8.2	-2.8	-0.2	-8.5	0.71	-3.9%	3.4
COC(=O)c1ccc(/C=N/NC(=S)NCCN2CCOCC2)cc1	2.2	4.0	0.3	4.8	/	1.8%	/
CCOC(=O)CSC1=C(C#N)C(c2ccc3c(c2)OCO3)CC(=O)N1 (stereo unspecified)	1.2	-3.0	0.9	25.4	0.696	-3.2%	5.0
CC(C)N(C(=O)CSc1nnc(NC(=O)Cc2cccs2)s1)C(C)C	-1.6	-1.5	0.2	8.1	0.714	-7.3%	0.3
COc1ccc([C@H]2CC(=O)C=C(c3ccc4c(c3)OCO4)C2)cc1OC	-3.5	-4.3	0.4	-0.3	/	/	1.6
Cc1csc(N(C(=O)c2ccccc2F)c2ccccc2)n1	-0.2	-7.6	-0.3	2.2	0.693	-4.7%	5.8
O=C(CSc1ncccn1)NN=C1CCCCCC1	-3.5	0.2	0.9	-4.6	0.694	-7.0%	-3.0
Cc1ccc(C(=O)Cn2c(C(=O)O)cc3ccccc32)cc1	3.9	3.8	1.4	7.3	0.668	0.3%	1.7
O=c1cc(CN2CCC(Cc3ccccc3)CC2)nc2sccn12	5.1	3.1	0.5	-5.0	0.656	-4.5%	1.4
Cc1cccc(NS(=O)(=O)c2ccc([N+](=O)[O-])cc2)n1	0.1	-7.3	0.6	2.3	0.651	-3.0%	2.3
COc1ccc(N(CC(=O)NC2CCCCCCC2)S(=O)(=O)c2c(C)nn(C)c2C)cc1	4.8	4.6	1.7	-0.9	0.786	0.1%	4.2
CCC(=O)N1CCN(c2ccc(NC(=O)c3ccc(C#N)cc3F)cc2Cl)CC1	-0.9	-3.9	1.6	1.5	0.699	-13.8%	4.2
Cc1c(C#N)c2ccccc2n1CC(=O)N1CCc2ccccc2C1	4.9	3.5	-0.7	-1.2	0.665	0.1%	0.6
COc1ccc(NC(=O)CSCC(=O)N2CCN(C(=O)c3ccco3)CC2)cc1	-2.6	2.1	0.8	-0.2	0.704	0.1%	-3.8
COc1ccc(-c2csc(N(CCCN3CCOCC3)C(=O)CCl)n2)cc1	4.8	-1.8	1.5	-3.5	0.696	0.7%	2.5
CCOC(=O)NC(=O)CSc1nnc(C)s1	-1.4	2.3	0.5	1.3	0.664	1.1%	0.0
Cc1ccc(CN2CCN(/N=C/c3sccc3C)CC2)c(C)c1	-2.1	1.6	-1.2	0.6	/	-1.1%	/
Cn1c(SCCc2ccc([N+](=O)[O-])cc2)nccc1=O	0.5	0.1	-0.2	6.5	0.674	/	0.2
CSc1nnc(SCc2nc3sc(C(=O)O)c(C)c3c(=O)[nH]2)s1	-22.3	6.1	0.8	7.3	0.704	?	8.5
CC1CCc2c(sc(NC(=O)c3ccc(Cn4cc(Br)cn4)o3)c2C(N)=O)C1 (stereo unspecified)	2.3	0.5	0.9	8.6	0.714	-8.6%&-0.8%	-67.4
CCCCNC(=O)CN1C(=O)NC2(CCOc3ccccc32)C1=O (stereo unspecified)	5.1	9.9	0.4	7.2	0.663	/	5.4
CC1=CCC(C(=O)O)C(C(=O)NC2CCCCC2)C1 (stereo unspecified)	-15.3	6.7	-0.8	-2.2	0.644	/	0.9
O=C(Nc1ncc(Cc2ccc(SC(F)F)cc2)s1)c1ccc(OC(F)F)cc1	-0.9	-0.6	0.0	8.3	0.74	-15.5%	-6.4
Cc1ccc(OCC(O)CN2CCc3ccccc3C2)c(C)c1 (stereo unspecified)	-3.5	-1.0	-1.4	-1.2	0.671	3.0%	-0.5
COc1ccc2c(c1)O/C(=C\c1ccccc1C)C2=O	-1.9	0.3	1.4	3.2	0.682	-2.4%	-1.5

Gathered by group: the compounds so far containing fluorine (three)
SMILES	HNF4A DNA FP	LANA-H2A inh	Bfl-1 A1 inh	Beta2AR agonist	Ecoli growth	Vif TR-FRET	UCH37 DUB inh
Cc1csc(N(C(=O)c2ccccc2F)c2ccccc2)n1	-0.2	-7.6	-0.3	2.2	0.693	-4.7%	5.8
CCC(=O)N1CCN(c2ccc(NC(=O)c3ccc(C#N)cc3F)cc2Cl)CC1	-0.9	-3.9	1.6	1.5	0.699	-13.8%	4.2
O=C(Nc1ncc(Cc2ccc(SC(F)F)cc2)s1)c1ccc(OC(F)F)cc1	-0.9	-0.6	0.0	8.3	0.74	-15.5%	-6.4

Further records.
SMILES	HNF4A DNA FP	LANA-H2A inh	Bfl-1 A1 inh	Beta2AR agonist	Ecoli growth	Vif TR-FRET	UCH37 DUB inh
Cc1nn(Cc2ccc(C(=O)N/N=C/c3ccncc3)o2)c(C)c1Cl	-0.5	-4.8	1.1	2.4	/	1.5%	/
C=C1CCN([C@@H](C)C(=O)NCc2ccc(Cl)cc2)S(=O)(=O)c2ccccc21	-0.4	-2.1	0.6	-2.1	/	/	-1.0
CCc1cccc(NC(=O)C2CCCN(S(=O)(=O)c3ccc4[nH]c(=O)ccc4c3)C2)c1 (stereo unspecified)	-0.5	0.9	0.1	-7.6	0.701	-1.1%	-11.5
Cc1oc(S(=O)(=O)N(C)C)cc1C(=O)Nc1ccc(Cl)cc1	3.7	-0.9	0.0	0.2	0.67	-2.4%	7.9
O=C(NCC(c1cccs1)N1CCOCC1)c1cc(Cl)ccc1[N+](=O)[O-] (stereo unspecified)	-2.4	2.7	-0.2	-2.5	0.682	7.2%	3.1
Cc1ccccc1OCC(=O)Nc1cc(Cl)ccc1Oc1ccccc1	1.9	-0.9	0.6	12.8	0.656	/	5.7
COc1ccc(C(=O)NNC(=O)c2ccc(F)c(S(=O)(=O)N3CCOCC3)c2)cc1	0.6	6.5	-0.9	-1.2	0.691	-3.7%	3.2
COc1cc2cc(CCCOC(=O)c3ccco3)oc(=O)c2cc1OC	-3.9	0.4	0.8	-2.3	0.685	/	4.4
CCOc1ccc2c(c1)c(=O)c(S(=O)(=O)c1ccc(C)cc1)cn2CC	-1.8	0.8	1.0	-6.0	0.676	-2.6%	2.8
O=C(COc1ccccc1)NCCSCc1ccccc1Cl	-5.3	-7.8	0.4	-5.5	0.693	/	5.1
CCn1c(SCC(=O)NCC2CCCO2)nc2cc(S(=O)(=O)N3CCCCC3)ccc21 (stereo unspecified)	1.3	2.0	0.2	1.0	0.685	3.0%	-1.3
CC(=O)N(/N=C1\Sc2ccccc2C1=O)c1ccccc1	9.5	/	/	3.8	/	-2.6%	/
COc1cc(NS(=O)(=O)c2ccc(NC(=O)CCC(=O)O)cc2)nc(OC)n1	1.2	3.3	-0.2	-8.5	0.681	/	7.4
O=[N+]([O-])c1ccc(S(=O)(=O)c2cccc(C(F)(F)F)c2)nc1	1.5	-4.9	-0.1	56.7*	0.664	/	7.0
CCOC(=O)Cc1csc(NC(=O)Nc2ccccc2)n1	0.3	-2.2	0.0	22.1	0.619	5.5%	1.1
CCC(=O)N1CCc2cc(S(=O)(=O)NCCN3CCC(C)CC3)ccc21	-1.2	-3.3	1.5	-13.7	0.715	2.2%	3.0
COC(=O)c1cc(=O)[nH]c(SCc2cccc(C)c2)n1	3.3	-2.7	-0.6	7.6	0.718	5.0%	4.9
Cc1ccc(S(=O)(=O)N(C)CC(=O)OCC(=O)NC(=O)NC(C)C)cc1	3.2	0.3	-0.1	10.1	0.645	/	-0.7
CCC1CCCCN1CCNC(=O)c1[nH]c(C)c(C(C)=O)c1C (stereo unspecified)	-2.9	2.2	1.1	-4.4	0.729	5.4%	1.5
Cc1cccc(NC(=O)c2cc(S(=O)(=O)N(C)c3ccc(F)cc3)ccc2Cl)n1	2.3	7.7	-0.8	-2.0	0.708	0.7%	3.9
OCC[C@@H]1C[C@H](O)[C@@H](O)[C@]2(CCCO2)O1	-4.0	-2.7	1.1	-3.1	/	/	1.1
CCOc1ccc(S(=O)(=O)Nc2ccc(F)cc2)c(C)c1C	0.2	-3.6	0.6	-4.3	0.706	1.3%	5.3
O=c1ccc2ccc(O[C@@H]3O[C@H](CO[C@@H]4OC[C@](O)(CO)[C@H]4O)[C@@H](O)[C@H](O)[C@H]3O)cc2o1	5.7	2.4	-0.2	-10.2	0.813	/	3.0
COc1ccc(NC(=O)CSc2nc(=O)n(CCN3CCOCC3)c3c2CCC3)c(OC)c1	1.1	-10.9	1.1	-7.3	0.685	5.8%	7.2
COC(=O)c1ccc2c(=O)n(CCN3CCOCC3)c(=S)[nH]c2c1	-0.8	3.9	0.1	9.5	0.702	-3.6%	-1.0
O=C(Oc1cccc2cccnc12)c1ccc2c(c1)OCCO2	3.0	3.3	0.2	4.6	0.683	-5.1%	0.2

Compounds as they come; overall some 2.1% were active at least once.
